Bioassay records deposited in PubChem by National Center for Advancing Translational Sciences (NCATS).
Menin MLL FP FL: inhibitors of human menin-MLL interaction, wild-type MLL peptide; AID 1766; 290,000 tested, under 10 active; FP activity change, % at 61.4 µM; Fluorescence polarization, fluorescein-MLL peptide displacement from menin; inconclusive = falling polarisation curve, or a change in total fluorescence; inactive = total fluorescence flat and polarisation flat or rising; no compound was filed as active; the % refers to the polarisation; negative = inhibition;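 further: % of control where 0% means no effect; inhibitors lower the polarisation; unlabelled MLL peptide was the positive control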
gsp antag: gsp mutant antagonism; Potency, µM (doses to about 76.9 µM), for inactives: at the top dose activity change, negative = inhibition, actives largely listed as inhibitors; gsp-mutant cells, cAMP HTRF, 30 min; control for the full effect not named in the record; 340,000 tested, 0.4% active; active = falling curve of any shape with a large fitted effect; inconclusive = falling curve, mostly with a smaller effect; inactive = flat or rising curve; cell line not stated here;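 further: intracellular cAMP measured with PDE inhibitor Ro 20-1724 present during compound exposure; potency means the concentration at half of the fitted maximal effect; on the % scale 0 is the no-effect control and ±100 the full control effect; nearly all actives have a fitted effect of over 65% in size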
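G418-selected cells were plated in DMEM/10% FBS for 16-24 h at 37C, then treated with compounds plus the PDE inhibitor […] (300 uM solution added) for 30 min at 37C. Intracellular cAMP was measured by HTRF after 30 min lysis at room temperature.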
ClpP mod: qHTS Assay for Activators of ClpP; 340,000 tested, 1.9% active; Potency, µM (titrated, usually from 57.5 µM), for inactives: at the highest dose activity change, negative = active; ATP-dependent Clp protease proteolytic subunit (Bacillus subtilis (strain 168)), P80244; purified B. subtilis ClpP, FRET peptide cleavage, 20 min; active = well fitted falling curve with a large enough effect; inconclusive = small, poorly fitted or top-dose-only effect; inactive = no such curve, though single readings can be large or run the other way; further: potency means the concentration at half of the fitted maximal effect; the source files actives as falling curves though it sought activators and does not explain the sign; nearly all actives have a fitted effect of over 65% in size; many hits overshoot -100%
Target sequence (P80244 whole entry, looked up): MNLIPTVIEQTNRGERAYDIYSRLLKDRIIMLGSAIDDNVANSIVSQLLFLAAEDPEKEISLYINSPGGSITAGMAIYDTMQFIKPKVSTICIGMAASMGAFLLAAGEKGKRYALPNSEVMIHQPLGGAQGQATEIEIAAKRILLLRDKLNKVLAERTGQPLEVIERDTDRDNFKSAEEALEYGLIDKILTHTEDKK
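Buffer: 100 mM Tris/HCl pH8, 100 mM KCl, 0.05% low protease BSA, 2.5% glycerol, 0.01% Tween-20. ClpP 10 microg/mL final; 20 min RT; delta FRET normalized to ADEP and DMSO controls.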
CtBP-E1A inh: CtBP/E1A binding inhibition | AlphaScreen GST-E1A/His-CtBP binding, 1536-well; stronger effect = lower value; control for the full effect not named in the record | activity change, % (concentration not given with the values) | 340,000 tested, 0.49% active; in the data active means activity change below about -65%; inconclusive means about -30% to -65%; inactive means above about -30%; further: on the % scale 0 is the no-effect control and ±100 the full control effect
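Steps: dispense buffer (Tris pH 8.0, NaCl 300 mM, TCEP 1 mM, BSA, Tween 20); add 5X protein mix (GST-E1A, His-CtBP, 125 nM each); pin 23 nL compound; 2 h at 37 °C, dark; add 5X beads (50 ug/mL); 1 h; read.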
TRPV1 PAM: human TRPV1 potentiation | Q8NER1 | TRPV1-expressing cells, Fluo-8 calcium influx, capsaicin EC20 potentiation; host cell line not named in the record; control for the full effect not named in the record | potentiation, % at 8.33 µM | 320,000 tested, 0.02% active; active means potentiation above 80%; inconclusive means 30% to 80%; inactive means below 30%; further: 0% is about no effect
Target sequence (Q8NER1 whole entry, looked up): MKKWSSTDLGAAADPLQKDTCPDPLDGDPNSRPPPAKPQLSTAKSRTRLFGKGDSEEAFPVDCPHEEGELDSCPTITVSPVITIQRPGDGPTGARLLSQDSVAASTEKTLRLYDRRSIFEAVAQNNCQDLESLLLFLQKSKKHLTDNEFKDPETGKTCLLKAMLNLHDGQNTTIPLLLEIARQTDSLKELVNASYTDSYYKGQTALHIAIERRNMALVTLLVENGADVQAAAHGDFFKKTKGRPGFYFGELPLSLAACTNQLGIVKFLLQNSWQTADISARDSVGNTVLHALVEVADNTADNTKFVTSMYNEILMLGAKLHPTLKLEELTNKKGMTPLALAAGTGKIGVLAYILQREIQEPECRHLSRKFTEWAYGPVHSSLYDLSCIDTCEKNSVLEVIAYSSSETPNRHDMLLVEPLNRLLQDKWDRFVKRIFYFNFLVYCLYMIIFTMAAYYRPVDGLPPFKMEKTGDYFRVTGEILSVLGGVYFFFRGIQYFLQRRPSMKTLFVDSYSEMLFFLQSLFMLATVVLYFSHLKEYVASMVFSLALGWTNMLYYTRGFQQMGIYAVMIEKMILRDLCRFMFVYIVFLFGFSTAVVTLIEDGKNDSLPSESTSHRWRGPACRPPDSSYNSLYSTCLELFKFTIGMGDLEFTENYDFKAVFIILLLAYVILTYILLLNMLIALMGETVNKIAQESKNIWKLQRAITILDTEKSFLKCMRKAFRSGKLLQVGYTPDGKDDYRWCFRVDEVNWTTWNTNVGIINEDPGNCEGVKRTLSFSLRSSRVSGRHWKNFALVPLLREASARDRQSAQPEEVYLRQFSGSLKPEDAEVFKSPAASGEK
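TRPV1-expressing cells were cultured overnight at 35.5C and loaded with Fluo-8 calcium dye for 40 to 90 min at room temperature. After a 10 s baseline, compound was added and calcium influx was read kinetically for 3 min (ex 480/em 520 nm).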
Sfp inh: blocks B. subtilis Sfp PPTase activity. Q9F4F7. Biochemical Sfp PPTase activity, qHTS. Potency, µM, for inactives: max response, negative = inhibition, most hits filed as inhibitors. 310,000 tested, 3.5% active; active means well fitted inhibition curve with a large enough effect; inconclusive means small, poorly fitted or top-dose-only effect, or another doubt; inactive means no such curve, though single readings can be large or run the other way;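 further: the enzyme is Sfp with the accession as filed and its product quenches rhodamine fluorescence; potency means the concentration at half of the fitted maximal effect; 0% = enzyme reaction without inhibitor and -100% = no enzyme wells; top concentration of the series not given in the record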
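Step 1, compound plus 15 nM Sfp-PPTase, 15 min, room temperature. Step 2, add rhodamine-CoA (5 uM) and BHQ-2-YbbR (12.5 uM). Step 3, read 525/598 nm fluorescence at 0 and 30 min.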
gsp agonist: gsp mutant agonism | gsp mutant cells, cAMP HTRF, 30 min; control for the full effect not named in the record | Potency, µM (titrated, usually from 76.9 µM), inactives show at the top dose activation (cAMP increase), usual class: activators | 340,000 tested, 0.13% active | AID 624287; active = well fitted activation curve with a large enough effect; inconclusive = small, poorly fitted or top-dose-only effect, or another doubt; inactive = no such curve, though single readings can be large or run the other way; cell line not stated here;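 further: phosphodiesterase inhibitor Ro 20-1724 added with compounds to block cAMP breakdown; potency means the concentration at half of the fitted maximal effect; nearly all actives have a fitted effect of over 60% in size; about a fifth of the inactives were tested at one dose only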
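Cells in DMEM/10% FBS with G418 were pretreated with compounds in DMSO plus […] (300 uM stock) for 30 min at 37C. cAMP was measured by HTRF (cAMP-d2 plus anti-cAMP antibody-K) after 30 min at room temperature.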
* marks the source's active call; other numbers are inactive results; [ ] = another dose, or the depositor's remark.

A first look, 2 compounds:
What do the screens show for `CSCC[C@H](NS(=O)(=O)c1ccc(C(C)=O)cc1)c1nnc2ccccn12`?
Menin MLL FP FL: 1.3; gsp antag: -10%; ClpP mod: 1.3%; TRPV1 PAM: 4; Sfp inh: 5%; gsp agonist: 15%

Results for NS(=O)(=O)c1ccc(NC(=O)CSc2ncnc3ccccc23)cc1 ?
Menin MLL FP FL: 0.1; gsp antag: -1%; ClpP mod: -0.1%; TRPV1 PAM: -3; Sfp inh: 9%; gsp agonist: inconclusive

The whole of this part, from the start:
What do the screens show for `CSCC[C@H](NS(=O)(=O)c1ccc(C(C)=O)cc1)c1nnc2ccccn12`?
Menin MLL FP FL: 1.3; gsp antag: -10%; ClpP mod: 1.3%; TRPV1 PAM: 4; Sfp inh: 5%; gsp agonist: 15%

Results for NS(=O)(=O)c1ccc(NC(=O)CSc2ncnc3ccccc23)cc1 ?
Menin MLL FP FL: 0.1; gsp antag: -1%; ClpP mod: -0.1%; TRPV1 PAM: -3; Sfp inh: 9%; gsp agonist: inconclusive

Results for O=c1c(-c2ccc(Cl)cc2)coc2c(CN3CCOCC3)c(O)ccc12 ?
Menin MLL FP FL: -1.4; gsp antag: -7%; ClpP mod: 28µM*; CtBP-E1A inh: -9; TRPV1 PAM: -5; Sfp inh: -2%; gsp agonist: -24%

How did COc1cc2ccccc2cc1C(=O)OCC(=O)NC1CCS(=O)(=O)C1 (stereo not drawn) do in these assays?
Menin MLL FP FL: 0.6; gsp antag: 0%; CtBP-E1A inh: -16; TRPV1 PAM: -12; Sfp inh: 17%; gsp agonist: -5%[15.4 µM]

How did CN(C)c1ccc(C(=O)NCCCSc2ccccc2)cc1 do in these assays?
Menin MLL FP FL: -5.8; gsp antag: -13%; ClpP mod: -2.7%; CtBP-E1A inh: -6; TRPV1 PAM: -9; Sfp inh: 0%; gsp agonist: 6%

What do the screens show for `O=C(Cn1cnc2c(nnn2Cc2ccc(F)cc2)c1=O)NCc1ccccc1`?
Menin MLL FP FL: -1.6; gsp antag: -9%; ClpP mod: -3.4%; TRPV1 PAM: 1; Sfp inh: 13%; gsp agonist: -42%[inhibitor]

Results for c1nc(N2CCCC2)c2[nH]cnc2n1 ?
Menin MLL FP FL: -0.5; gsp antag: 6%; ClpP mod: -3.2%; CtBP-E1A inh: -9; TRPV1 PAM: -5; Sfp inh: 22%; gsp agonist: 27%

Results for COc1ccc(-n2c(=O)c(NC(=O)c3ccccc3)c3n(c2=S)CCCCC3)cc1 ?
Menin MLL FP FL: -1.1; gsp antag: -9%; CtBP-E1A inh: 1; TRPV1 PAM: 1; Sfp inh: 11%; gsp agonist: -6%[15.4 µM]

How did CN1CCn2cnc(C(=O)Nc3ccc(CNC(=O)OC(C)(C)C)cc3)c2C1=O do in these assays?
ClpP mod: -4.9%; CtBP-E1A inh: -16; gsp agonist: inconclusive

What do the screens show for `CCCC(CCC(=O)Nc1cccc([N+](=O)[O-])c1)C(=O)O` (stereo not drawn)?
Menin MLL FP FL: -0.5; gsp antag: 14%; CtBP-E1A inh: 7; TRPV1 PAM: -7; Sfp inh: 19%; gsp agonist: 10%[15.4 µM]

What do the screens show for `O=C(NC1CCCCCC1)C1CCN(c2nc3ccccc3o2)CC1`?
Menin MLL FP FL: 0.2; gsp antag: 1%; ClpP mod: -1.4%; CtBP-E1A inh: 0; TRPV1 PAM: -23; Sfp inh: 21%; gsp agonist: 5%

How did CCOC(=O)CC1C(=O)NCCN1S(=O)(=O)c1ccc(Cl)cc1Cl (stereo not drawn) do in these assays?
Menin MLL FP FL: 1.4; gsp antag: 3%; ClpP mod: -1.3%; CtBP-E1A inh: 1; TRPV1 PAM: -5; Sfp inh: -2%; gsp agonist: -4%

What do the screens show for `CC(=O)N1CCC(=NNc2nc3ccccc3s2)CC1`?
Menin MLL FP FL: -7.9; gsp antag: -3%; ClpP mod: 0.9%; CtBP-E1A inh: -7; TRPV1 PAM: 1; Sfp inh: inconclusive; gsp agonist: -48%[inhibitor]

What do the screens show for `COc1ccc(NC(=S)NCCSc2ccc(C)cc2)c(OC)c1`?
gsp antag: -36%; ClpP mod: 1.3%; CtBP-E1A inh: -16; gsp agonist: -16%

How did CCOC(=O)N1CCN=C1SCc1ccc(C(F)(F)F)cc1 do in these assays?
Menin MLL FP FL: -1.7; gsp antag: -2%; CtBP-E1A inh: 26; TRPV1 PAM: -3; Sfp inh: 11%; gsp agonist: 8%[15.4 µM]

What do the screens show for `CC(C)(C)NC(=O)NC(=O)CN1CCN(c2ncc(C(F)(F)F)cc2Cl)CC1`?
Menin MLL FP FL: 0.8; gsp antag: -28%; ClpP mod: 1.4%; CtBP-E1A inh: 4; TRPV1 PAM: -9; Sfp inh: 11%; gsp agonist: -32%

How did Cc1ccc(NC(=O)CSc2ncccn2)c([N+](=O)[O-])c1 do in these assays?
Menin MLL FP FL: -1.0; gsp antag: 0%; CtBP-E1A inh: 20; TRPV1 PAM: 5; Sfp inh: 16%; gsp agonist: inconclusive

How did CCOC(=O)c1nc(C)nc(Sc2n[nH]c(-c3cc(Cl)cc(Cl)c3)n2)c1C do in these assays?
Menin MLL FP FL: 0.2; gsp antag: -22%; CtBP-E1A inh: -9; TRPV1 PAM: 23; Sfp inh: 9%; gsp agonist: 2%

What do the screens show for `Cc1ccc(C(=O)OCC(=O)N2CCC(c3ccccc3)=N2)c(C)c1`?
gsp antag: 9%; CtBP-E1A inh: 10; TRPV1 PAM: -12; gsp agonist: 10%[15.4 µM]

What do the screens show for `CC1CCN(c2nc3c(=O)[nH]c(N)nc3n2[C@@H]2O[C@H](CO)[C@@H](O)[C@H]2O)CC1`?
Menin MLL FP FL: -1.1; gsp antag: 2%; CtBP-E1A inh: 0; TRPV1 PAM: -1; Sfp inh: -7%; gsp agonist: 22%

How did Cc1ccc(C)c(NC(=O)CCN2CCCCC2)c1 do in these assays?
Menin MLL FP FL: 4.9; gsp antag: 4%; CtBP-E1A inh: -1; TRPV1 PAM: -13; Sfp inh: 0%; gsp agonist: 1%

What do the screens show for `COCCN(C(=O)COC(=O)c1cc2ccccc2cc1OC)c1c(N)n(Cc2ccccc2)c(=O)[nH]c1=O`?
gsp antag: -8%; CtBP-E1A inh: 6; TRPV1 PAM: 0; gsp agonist: 10%[15.4 µM]

Results for CC1=C(n2nnc([N+](=O)[O-])n2)C(c2cccnc2)C(C#N)=C(N)O1 (stereo not drawn) ?
Menin MLL FP FL: -7.5; gsp antag: 9%; ClpP mod: -2.7%; CtBP-E1A inh: -1; TRPV1 PAM: 20; Sfp inh: 11%; gsp agonist: -17%

What do the screens show for `CC(=O)N(c1nnc(-c2cccc(C)c2)s1)C1CCCC1`?
Menin MLL FP FL: -1.7; gsp antag: -4%; CtBP-E1A inh: 0; TRPV1 PAM: 8; Sfp inh: 5%; gsp agonist: -3%

How did COc1ccc(CCNC(=O)C2CCN(S(=O)(=O)c3cccc4nonc34)CC2)cc1OC do in these assays?
Menin MLL FP FL: 5.3; gsp antag: -2%; ClpP mod: -1.9%; CtBP-E1A inh: 4; TRPV1 PAM: -15; Sfp inh: 6%; gsp agonist: 10%

Results for COc1ccc(CN(C)C(=O)Cn2cnc3c(NCc4ccccc4)ncnc32)cc1OC ?
gsp antag: 3%; ClpP mod: -3.8%; CtBP-E1A inh: -18

What do the screens show for `CC1(C(=O)NC(=S)N(Cc2ccccc2)c2ccccn2)CC1(Cl)Cl` (stereo not drawn)?
Menin MLL FP FL: 1.9; gsp antag: 9%; ClpP mod: inconclusive; CtBP-E1A inh: 9; TRPV1 PAM: 12; Sfp inh: -18%; gsp agonist: -17%[15.4 µM]

How did CCc1nc(Nc2ccc3nccnc3c2)c2oc3ccccc3c2n1 do in these assays?
Menin MLL FP FL: inconclusive; gsp antag: 5%; ClpP mod: 28µM*; CtBP-E1A inh: inconclusive; TRPV1 PAM: -30; Sfp inh: -4%; gsp agonist: 28%

Results for CC1(c2ccc3ccccc3c2)NC(=O)N(CC(=O)NCC(C)(C)N2CCOCC2)C1=O (stereo not drawn) ?
gsp antag: 9%; CtBP-E1A inh: 5; TRPV1 PAM: 2; gsp agonist: -1%[15.4 µM]

What do the screens show for `CCOc1ccc(C(=O)C[n+]2ccc(C(=O)NCc3ccccc3)cc2)cc1`?
Menin MLL FP FL: 1.5; gsp antag: 1%; CtBP-E1A inh: 12; TRPV1 PAM: -6; Sfp inh: -5%; gsp agonist: 11%[15.4 µM]

What do the screens show for `COc1ccc(S(=O)(=O)N(C)CC(=O)N2CCCC2)cc1OC`?
Menin MLL FP FL: 3.9; gsp antag: 5%; ClpP mod: -2.8%; TRPV1 PAM: 20; Sfp inh: 11%; gsp agonist: -28%

What do the screens show for `O=[N+]([O-])c1ccc2c(c1)C=C1CCCCC1(N1CCCC1)O2` (stereo not drawn)?
Menin MLL FP FL: 3.0; gsp antag: -26%; ClpP mod: inconclusive; CtBP-E1A inh: 14; TRPV1 PAM: 1; Sfp inh: -6%; gsp agonist: -21%

What do the screens show for `Clc1ccc(CONc2ncnc3nonc23)c(Cl)c1`?
Menin MLL FP FL: -1.1; gsp antag: -15%; CtBP-E1A inh: -1; TRPV1 PAM: 2; Sfp inh: 0%; gsp agonist: 3%

How did Cc1ccc(Cn2ccc(NC(=O)C3C4CCC(C4)C3C(=O)O)n2)cc1 (stereo not drawn) do in these assays?
Menin MLL FP FL: 0.2; gsp antag: -7%; ClpP mod: -29%; CtBP-E1A inh: 14; TRPV1 PAM: 2; Sfp inh: 0%; gsp agonist: 14%

How did CCN=C1S/C(=C\c2cn(CC)c3ccccc23)C(=O)N1CC do in these assays?
Menin MLL FP FL: 13; gsp antag: -2%; CtBP-E1A inh: 1; TRPV1 PAM: -3; Sfp inh: inconclusive; gsp agonist: -12%

How did CSc1nnc2c(n1)c(C)nn2-c1cccc(C)c1 do in these assays?
Menin MLL FP FL: -0.2; gsp antag: -10%; ClpP mod: 0.5%; CtBP-E1A inh: inconclusive; TRPV1 PAM: 4; Sfp inh: -16%; gsp agonist: -11%
